Menin MLL FP FL: menin-MLL binding inhibition, fluorescein peptide. Fluorescence polarization, fluorescein-MLL peptide displacement from menin. FP activity change, % at 61.4 µM. 290,000 tested, under 10 active; inconclusive = falling polarisation curve, or a change in total fluorescence; inactive = total fluorescence flat and polarisation flat or rising; no compound was filed as active; the % refers to the polarisation; negative = inhibition;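 further: % of control where 0% means no effect; inhibitors lower the polarisation; unlabelled MLL peptide was the positive control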
PINK1 expr mod: PINK1 expression modulation. Potency, µM (highest dose often 76.6 µM), without a hit: top-dose activation (PINK1 increase), usual class: activators. PINK1 immunofluorescence, high-content cytometry, 24 h. hit rate 0.2% among 410,000; active = well fitted activation curve with a large enough effect; inconclusive = small, poorly fitted or top-dose-only effect; inactive = flat fitted curve, though single readings scatter; cell line not stated here;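 further: potency means the concentration at half of the fitted maximal effect; % of control where 0% means no effect; nearly all actives have a fitted effect of over 65% in size; a mitochondrial uncoupler was the plate control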
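Measures PINK1 amount and localization on or inside mitochondria by immunofluorescence. Stable cells get compounds at 5 concentrations for 24 hours before fixation and staining; CCCP controls included.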
D2 agonist: agonists of human D2 dopamine receptor (beta-arrestin). P14416. DiscoveRx PathHunter D2 beta-arrestin, luminescence, 90 min; 100% = 57 uM dopamine signal. activation, % (test concentration not listed). hit rate 0.084% among 360,000. AID 624465; in the data active = activation above about 40%; inconclusive = about 15% to 40%; inactive = below about 15%; further: compound concentration not given in the record; the text of the record calls up to 30% inactive
Target sequence (P14416 whole entry, looked up): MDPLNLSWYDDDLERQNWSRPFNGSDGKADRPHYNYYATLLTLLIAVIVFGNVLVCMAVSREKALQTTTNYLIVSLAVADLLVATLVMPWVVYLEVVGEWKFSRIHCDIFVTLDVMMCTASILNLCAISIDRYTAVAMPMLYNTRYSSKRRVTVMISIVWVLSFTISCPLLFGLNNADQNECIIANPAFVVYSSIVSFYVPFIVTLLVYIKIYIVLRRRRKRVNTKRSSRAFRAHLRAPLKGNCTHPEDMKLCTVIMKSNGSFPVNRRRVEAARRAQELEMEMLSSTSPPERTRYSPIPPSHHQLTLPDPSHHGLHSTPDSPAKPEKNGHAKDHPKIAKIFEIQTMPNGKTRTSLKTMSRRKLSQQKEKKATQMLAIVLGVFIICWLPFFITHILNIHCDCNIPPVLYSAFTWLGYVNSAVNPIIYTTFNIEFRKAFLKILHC
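Agonist mode: compounds alone added to overnight-plated D2 PathHunter cells for 90 min at 37 C, with 57 uM final dopamine (EC100) defining full response. Beta-arrestin recruitment detected by chemiluminescent reagent, read after 1 h at ambient temperature.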
gsp antag: antagonists of gsp mutant (McCune-Albright syndrome); AID 624288; hit rate 0.4% among 340,000; Potency, µM (titrated, usually from 76.9 µM), for the others: at the highest dose activity change, negative = inhibition, actives largely listed as inhibitors; gsp-mutant cells, cAMP HTRF, 30 min; control for the full effect not named in the record; active = falling curve of any shape with a large fitted effect; inconclusive = falling curve, mostly with a smaller effect; inactive = flat or rising curve; cell line not stated here;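 further: intracellular cAMP measured with PDE inhibitor Ro 20-1724 present during compound exposure; potency means the concentration at half of the fitted maximal effect; on the % scale 0 is the no-effect control and ±100 the full control effect; nearly all actives have a fitted effect of over 65% in size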
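G418-selected cells were plated in DMEM/10% FBS for 16-24 h at 37C, then treated with compounds plus the PDE inhibitor […] (300 uM solution added) for 30 min at 37C. Intracellular cAMP was measured by HTRF after 30 min lysis at room temperature.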
Sfp inh: Sfp phosphopantetheinyl transferase inhibition; Q9F4F7; Biochemical Sfp PPTase activity, qHTS; Potency, µM, for the others: max response, negative = inhibition, usual class: inhibitors; hit rate 3.5% among 310,000; active means well fitted inhibition curve with a large enough effect; inconclusive means small, poorly fitted or top-dose-only effect, or another doubt; inactive means no such curve, though single readings can be large or run the other way;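 further: the enzyme is Sfp with the accession as filed and its product quenches rhodamine fluorescence; potency means the concentration at half of the fitted maximal effect; 0% = enzyme reaction without inhibitor and -100% = no enzyme wells; top concentration of the series not given in the record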
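After 15 min at room temperature with compound, 15 nM Sfp received 5 uM rhodamine-CoA plus 12.5 uM BHQ-2-ybbR (50 mM Hepes pH 7.6, 10 mM MgCl2). Rate came from the fluorescence difference over 30 min, ex 525/em 598 nm.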
gsp agonist: gsp mutant agonism; gsp mutant cells, cAMP HTRF, 30 min; control for the full effect not named in the record; Potency, µM (titrated, usually from 76.9 µM), inactives show at the highest dose activation (cAMP increase), usual class: activators; hit rate 0.13% among 340,000; AID 624287; active = well fitted activation curve with a large enough effect; inconclusive = small, poorly fitted or top-dose-only effect, or another doubt; inactive = no such curve, though single readings can be large or run the other way; cell line not stated here;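 further: phosphodiesterase inhibitor Ro 20-1724 added with compounds to block cAMP breakdown; potency means the concentration at half of the fitted maximal effect; nearly all actives have a fitted effect of over 60% in size; about a fifth of the inactives were tested at one dose only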
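Cells stably selected in G418 were plated at 2000/well, grown 16-24 hr, then given compounds in DMSO with the PDE inhibitor […] (300 uM solution added) for 30 min at 37C; cAMP was read by HTRF.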
ClpP mod: qHTS Assay for Activators of ClpP. ATP-dependent Clp protease proteolytic subunit (Bacillus subtilis (strain 168)), P80244. purified B. subtilis ClpP, FRET peptide cleavage, 20 min. Potency, µM (highest dose often 57.5 µM), for the others: at the top dose activity change, negative = active. hit rate 1.9% among 340,000; active = well fitted falling curve with a large enough effect; inconclusive = small, poorly fitted or top-dose-only effect; inactive = no such curve, though single readings can be large or run the other way; further: potency means the concentration at half of the fitted maximal effect; the source files actives as falling curves though it sought activators and does not explain the sign; nearly all actives have a fitted effect of over 65% in size; many hits overshoot -100%
Target sequence (P80244 whole entry, looked up): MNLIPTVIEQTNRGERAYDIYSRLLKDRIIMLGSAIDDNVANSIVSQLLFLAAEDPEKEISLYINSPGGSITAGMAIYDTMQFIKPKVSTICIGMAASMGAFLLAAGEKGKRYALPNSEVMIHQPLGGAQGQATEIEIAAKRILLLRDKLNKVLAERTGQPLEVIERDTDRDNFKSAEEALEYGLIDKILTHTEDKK
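FRET quenching reversal measured ClpP activation: 10 microg/mL B. subtilis ClpP at pH 8 with the FRET-FV decapeptide, read at 430 nm after 320 nm excitation. The 20-min minus 0-min signal was scaled between DMSO/no-enzyme wells and ADEP (5.8 microM final).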
The depositor's hits bear a star; ? = inconclusive; nt = no result given; & = joins results of further samples; [ ] = another dose, or the depositor's remark.

SMILES,Menin MLL FP FL,PINK1 expr mod,D2 agonist,gsp antag,Sfp inh,gsp agonist,ClpP mod
O=C(c1ccccc1Cl)N(Cc1ccc(Br)cc1)N1C(=O)CCCC1=O,0.2,0.5%,-2.2,-1.0%,4.3%,-23.5%,2.1%
COc1ccc(CNC(=O)C2CC(c3cccc(OC)c3)=NO2)cc1 (stereo unspecified),3.1,2.4%[38.3 µM],-2.5,7.3%,-13.3%,17.0%,0.4%
COC(=O)C(=O)Nc1nnc(COc2ccccc2)s1,1.2,-0.6%,-3.2,-10.4%,-3.7%,-1.7%,-2.0%
CC[C@@H]1[C@H]2CCCC(=O)N3CC[C@@H](C[C@@H]1OC(=O)NCc1ccccc1)[C@@H]23,-2.6,-0.6%,-0.6,0.6%,8.6%,2.8%,-0.8%&-6.0%
O=C(CN1CCSCC1)N/N=C/c1ccccc1F,-0.4,-2.7%[38.3 µM],-0.3,7.5%,-30.0%,-20.9%,-2.6%
COC1CCCN(C(=O)c2ccc3nc(Cc4cccc(Cl)c4)oc3c2)C1 (stereo unspecified),nt,0.6%,-3.8,0.2%,3.0%,-12.3%[15.4 µM],nt
CCOc1ccc(C(=O)C2CCN(C(=O)c3ccc([N+](=O)[O-])cc3)CC2)cc1,-1.7,2.6%,6.3,-18.2%,9.0%,-5.6%,0.9%
COCC(C)NCc1cccc(C)c1 (stereo unspecified),-3.5,2.4%,-4.4,-0.1%,21.3%,22.6%,0.9%
O=S(=O)(Nc1nc2ccccc2s1)c1cc(F)ccc1F,nt,1.3%,1.9,-15.4%,24.7%,-46.3%[inhibitor],-4.4%
Cc1ccc(Nc2cccccc2=O)cc1,0.4,-0.1%,-0.9,10.6%,7.7%,-23.4%,-0.4%
CN(c1ccc(OCC(=O)NC2CCCC2)cc1)S(=O)(=O)c1cccs1,-0.9,0.6%,0.9,-11.1%,-8.1%,-15.6%,-3.6%
O=C(CSc1nnc(-c2ccccc2F)o1)OCc1ccccc1,2.5,-0.4%[38.3 µM],0.1,-13.2%,0.4%,2.7%,1.0%
Cc1nn(-c2cc(C(F)(F)F)ccn2)c(=O)o1,0.3,-0.8%,-2.9,4.2%,18.0%,-8.7%,-3.2%
NS(=O)(=O)c1ccc(CCNC(=O)C2CCN(c3ncnc4c3nc3n4CCCCC3)CC2)cc1,-3.6,0.4%&2.4%,-3.5,1.3%,2.4%,?,2.9%&-5.0%
C=CCNc1ccccc1S(=O)(=O)NCc1ccccc1,nt,0.6%,-3.0,-1.7%,nt,nt,-21.4%
O=C(Nc1cccc2cccc(NC(=O)c3ccco3)c12)c1ccco1,0.7,-7.4%[38.3 µM],4.4,2.7%,-17.8%,-19.1%,-0.8%
Cc1ccc(CNc2nc(C)nc3sc4c(c23)CCC4)cc1,10.8,1.3%[38.3 µM],4.8,-31.3%,-32.4%,28.4%,-1.9%
CCCCN(C)CCC(=O)Nc1ccc(OC)cc1OC,1.4,-1.7%,-0.6,4.5%,-7.6%,6.2%,-2.3%
Cc1cccc(C)c1NC(=O)CN1C(=O)CCSc2ccc(S(=O)(=O)N3CCCC3)cc21,nt,0.5%&1.3%,1.4,5.3%,-6.2%,19.5%,-0.3%&-0.5%
Cc1ccc(Cn2c(CCC(=O)O)nc3ncccc3c2=O)cc1,4.9,1.5%,-4.8,6.0%,13.5%,27.0%[15.4 µM],-1.9%
O=C(CN1CCN(c2ccccc2F)CC1)Nc1ccccc1F,1.6,-3.2%,1.0,-1.1%,5.2%,-29.1%,-4.2%
Cc1[nH]c2ccc3ncccc3c2c1C,0.3,-0.8%,-5.8,2.8%,-53.3%,-0.1%[15.4 µM],0.2%
Cc1ccc(NC(=S)N2CCCN(Cc3ccc(F)cc3)C2)c(C)c1,-4.3,3.1%,-1.7,-4.6%,22.8%,11.0%,nt
CCCCNC(=O)CCn1c(=O)c2ccccc2n(Cc2ccc(Cl)cc2)c1=O,4.7,2.9%,-8.6,-11.3%,-3.1%,0.4%,-7.8%
CCc1c(C(=O)NNC(=O)Nc2ccc3c(c2)OCO3)csc1C,nt,-0.6%,-2.6,-2.2%,-1.1%,-2.3%,2.6%
Cc1ccccc1NS(=O)(=O)c1ccc(OCC(=O)N2CCCCC2)cc1,0.6,-1.6%[38.3 µM],-0.4,5.4%,17.0%,13.5%,0.0%
[N-]=[N+]=CC(=O)CCCN1C(=O)c2ccccc2C1=O,3.8,-1.6%,2.8,-4.8%,11.6%,-0.3%,-0.2%
Cc1ccccc1CN1CCN(Cc2ccc3cccc(F)c3n2)CC1CCO (stereo unspecified),0.0,0.2%,5.2,-2.7%,4.3%,-69.9%[inhibitor],nt
O=C(c1ccccc1)c1nc[nH]c1C(=O)Nc1ccccn1,6.3,-0.9%,-2.4,4.2%,6.6%,-49.9%[inhibitor],28.2µM*
COc1ccc(NC(=O)CSc2nnc(Cc3cccs3)n2-c2ccc(C)cc2)cc1,0.8,0.8%[38.3 µM],-1.2,31.6µM*,5.8%,-46.4%,-1.6%
N[C@@H](Cc1ccc(O)cc1)c1nnc([C@H](CCC(=O)O)NC(=O)C2CCNCC2)o1,-1.3,2.4%,0.3,13.3%,-20.1%,nt,0.2%
CNC(=O)/C(C#N)=C1/SC(Cc2ccc(F)cc2)C(=O)N1c1ccccc1 (stereo unspecified),1.3,1.3%,-4.1,-2.0%,15.2%,-0.6%,nt
COC(=O)c1ccc(-c2c(-c3ccccc3)ncc3cc(OC)c(OC)cc23)cc1,nt,3.6%,-0.4,-8.5%,nt,-17.8%,?
CCOC(=O)CN1N=C(/C=C/c2ccccc2)CCC1=O,nt,-2.3%,0.9,-9.6%,nt,5.4%,-2.9%
CCc1c(C)sc(NC(=O)Cc2ccccc2OC)c1C(=O)N1CCOCC1,nt,-0.5%,-0.7,0.8%,12.1%,?,0.6%
CCOC(=O)CC1=Nc2ccccc2NC(=O)C1,0.7,1.3%,-1.3,5.8%,8.5%,-4.6%,0.3%
CCC1=C(CC2NCCc3ccccc32)CC2c3cc(OC)c(OC)cc3CCN2C1 (stereo unspecified),nt,-1.8%,-6.9,-0.3%,nt,6.0%,-29.8%
COc1cccc(C(=O)NCc2ccc(-c3nc4ccccc4s3)cc2)c1,4.1,11.9%,0.8,-11.7%,2.2%,-11.3%,?
O=C1C(=O)N(CCCN2CCOCC2)C(c2ccc([N+](=O)[O-])cc2)/C1=C(\O)c1ccc2c(c1)OCCO2 (stereo unspecified),nt,0.3%,-3.3,5.2%,-4.7%,-0.2%,-2.1%
Cc1cc(C(=O)CN2C(=O)C(=O)N(Cc3ccccc3)C2=O)c(C)n1-c1ccccc1F,-1.3,0.5%,-2.3,14.9%,24.1%,-34.1%[inhibitor],nt
COc1ccc(S(=O)(=O)Nc2cccc3c2O[C@H](CN(C)Cc2ccc(Oc4ccccc4)cc2)[C@@H](C)CN([C@H](C)CO)C3=O)cc1,nt,-0.1%,-0.6,-35.2%,nt,nt,-1.5%
CC(=O)Oc1ccc2cc(-c3nc4ccccc4n3C)c(=O)oc2c1,-1.9,-2.9%[38.3 µM],0.5,11.9%,6.2%,-1.9%,33.7%
O=[N+]([O-])c1cnc(Sc2ccncn2)s1,2.8,-1.5%,-5.7,-2.1%,?,21.8%,-3.0%
OCCCNCc1ccc(-c2ccccc2)cc1,2.4,0.5%,-1.4,-20.3%,8.4%,18.1%[15.4 µM],nt
Cc1cccc(NC(=S)N(CCN(C)C)C(C)c2cccnc2)c1 (stereo unspecified),-5.6,-3.3%,-2.3,1.1%,13.5%,-12.3%[15.4 µM],-0.6%

6 compounds picked at random from those above, as already listed:
SMILES,Menin MLL FP FL,PINK1 expr mod,D2 agonist,gsp antag,Sfp inh,gsp agonist,ClpP mod
CCOC(=O)CC1=Nc2ccccc2NC(=O)C1,0.7,1.3%,-1.3,5.8%,8.5%,-4.6%,0.3%
COC(=O)c1ccc(-c2c(-c3ccccc3)ncc3cc(OC)c(OC)cc23)cc1,nt,3.6%,-0.4,-8.5%,nt,-17.8%,?
COc1cccc(C(=O)NCc2ccc(-c3nc4ccccc4s3)cc2)c1,4.1,11.9%,0.8,-11.7%,2.2%,-11.3%,?
Cc1cccc(NC(=S)N(CCN(C)C)C(C)c2cccnc2)c1 (stereo unspecified),-5.6,-3.3%,-2.3,1.1%,13.5%,-12.3%[15.4 µM],-0.6%
N[C@@H](Cc1ccc(O)cc1)c1nnc([C@H](CCC(=O)O)NC(=O)C2CCNCC2)o1,-1.3,2.4%,0.3,13.3%,-20.1%,nt,0.2%
COc1ccc(S(=O)(=O)Nc2cccc3c2O[C@H](CN(C)Cc2ccc(Oc4ccccc4)cc2)[C@@H](C)CN([C@H](C)CO)C3=O)cc1,nt,-0.1%,-0.6,-35.2%,nt,nt,-1.5%

Next part
SMILES,Menin MLL FP FL,PINK1 expr mod,D2 agonist,gsp antag,Sfp inh,gsp agonist,ClpP mod
CC(C)Cc1nc(N2CCOCC2)c(C#N)c2c1COC(C)(C)C2,-0.7,15.1%,-0.2,-13.6%,19.4%,2.2%,28.2µM*
Oc1ccccc1C(=S)N1CCCCCC1,-4.6,0.1%,-1.2,3.8%,19.9%,-11.9%,1.9%
CCOC(=O)C(NC(=O)c1ccccc1)(Nc1nnc(C)s1)C(F)(F)F (stereo unspecified),2.8,1.0%,-2.3,-3.2%,5.3%,5.8%,-3.6%
Cc1nc2ccccc2n1CC(=O)N/N=C\c1ccccn1,-0.6,2.4%,-0.3,12.1%,?,4.8%,-4.5%
CCCN1C(=O)COc2ccc(C(=O)c3ccccc3C(=O)O)cc21,-1.8,2.9%,-1.3,-3.4%,11.6%,7.8%,nt
